Screens from PubChem.
CtBP-E1A inh: qHTS Assay for Inhibitors of the CtBP/E1A Interaction; CtBP / adenovirus E1A interaction (AlphaScreen); AlphaScreen GST-E1A/His-CtBP binding, 1536-well; active compounds read low; control for the full effect not named in the record; activity change, % (no concentration beside the values); hit rate 0.49% among 340,000; in the data active means activity change below about -65%; inconclusive means about -30% to -65%; inactive means above about -30%; further: on the % scale 0 is the no-effect control and ±100 the full control effect
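Protein mix (5X: 125 nM each GST-E1A, His-CtBP) was incubated with pinned compound 2 h at 37 deg C in dark, in 50 mM Tris pH 8.0 buffer with 300 mM NaCl. Glutathione donor and nickel acceptor beads followed; AlphaScreen signal read after 1 h.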
TRPML1 ag: qHTS for Agonists of the Human Mucolipin Transient Receptor Potential 1 (TRPML1) | TRPML1-expressing cells, Ca2+ dye fluorescence, FDSS; host cell line not named in the record; reference of the full effect not given here | hit rate 0.12% among 410,000 | AID 624414, 2012 | activation, % (test concentration not listed) | Mucolipin-1 (Homo sapiens), Q9GZU1; in the data active = activation above about 50%; inconclusive = about 30% to 50%; inactive = below about 30%; further: 0% is about no effect; the text of the record puts the active cut at 80%
Target sequence (Q9GZU1 whole entry, looked up): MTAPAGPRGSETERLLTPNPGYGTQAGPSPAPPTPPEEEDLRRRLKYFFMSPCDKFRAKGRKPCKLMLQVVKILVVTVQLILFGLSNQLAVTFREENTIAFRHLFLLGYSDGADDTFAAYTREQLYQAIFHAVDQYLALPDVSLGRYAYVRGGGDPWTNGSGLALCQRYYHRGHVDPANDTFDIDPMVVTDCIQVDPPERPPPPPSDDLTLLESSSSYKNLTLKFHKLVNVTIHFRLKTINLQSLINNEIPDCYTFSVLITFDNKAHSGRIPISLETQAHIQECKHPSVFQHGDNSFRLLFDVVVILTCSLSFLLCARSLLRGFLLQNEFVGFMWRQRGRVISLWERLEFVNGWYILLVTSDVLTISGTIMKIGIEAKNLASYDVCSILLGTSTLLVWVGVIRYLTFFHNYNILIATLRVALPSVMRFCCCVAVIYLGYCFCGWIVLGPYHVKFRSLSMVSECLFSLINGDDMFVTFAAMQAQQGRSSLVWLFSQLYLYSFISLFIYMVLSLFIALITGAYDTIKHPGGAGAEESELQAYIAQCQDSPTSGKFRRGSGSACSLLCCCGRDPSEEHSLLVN
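Tetracycline-induced TRPML1-DL cells are seeded and incubated overnight before loading with a no-wash Ca2+ dye and quencher. Agonist activity is taken from the 110 s fluorescence read following compound pin-transfer on an FDSS, before EC80 54-4 challenge.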
D2 PAM: Beta-Arrestin HTS for Positive Allosteric Modulators of the Human D2 Dopamine Receptor: Potentiators; D(2) dopamine receptor (Homo sapiens), P14416; DiscoveRx D2 beta-arrestin cells, luminescence, 90 min; 100% = 57 uM dopamine signal; potentiation, % (concentration not given with the values); hit rate 0.23% among 360,000; active = potentiation of 50% or more; inconclusive = 30% to 50%; inactive = 30% or less;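 further: compound concentration not given in the record; tested on top of an EC20 dose of dopamine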
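D2 cells co-treated with compound plus 50 nM dopamine (EC20) for 90 min at 37 deg C to detect potentiation. Beta-arrestin recruitment was read as enzyme-fragment luminescence after 1 h at ambient temperature. Full response was set by 57 uM dopamine.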
PINK1 modulator: A Quantitative High throughput Screen to Identify Chemical Modulators of PINK1 Expression; PINK1 immunofluorescence, high-content cytometry, 24 h; hit rate 0.2% among 410,000; AID 624263, 2012; Potency, µM (doses to about 76.6 µM), without a hit: at the highest dose activation (PINK1 increase), most hits filed as activators; active = well fitted activation curve with a large enough effect; inconclusive = small, poorly fitted or top-dose-only effect; inactive = flat fitted curve, though single readings scatter; cell line not stated here;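 further: potency means the concentration at half of the fitted maximal effect; % of control where 0% means no effect; nearly all actives have a fitted effect of over 65% in size; a mitochondrial uncoupler was the plate control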
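Measures PINK1 amount and localization on or inside mitochondria by immunofluorescence. Stable cells get compounds at 5 concentrations for 24 hours before fixation and staining; CCCP controls included.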
Six1-Eya2 inh: qHTS Assay for Inhibitors of the Six1/Eya2 Interaction. Homeobox protein SIX1 (Homo sapiens) + Protein phosphatase EYA2 (Homo sapiens), …. AlphaScreen GST-Six1/His-Eya2 binding, biochemical; active compounds read low; control for the full effect not named in the record. activity change, % (test concentration not listed). hit rate 0.56% among 360,000; in the data active = activity change below about -65%; inconclusive = about -30% to -65%; inactive = above about -30%; further: on the % scale 0 is the no-effect control and ±100 the full control effect
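GST-Six1 + His-Eya2 (5X stock: 250/500 nM); Tris pH 8.0, 300 mM NaCl, 0.05% BSA, 0.02% Tween 20; GSH donor/Ni acceptor beads; 1 h 37 °C dark; AlphaScreen readout.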
D2 ag: Beta-Arrestin HTS for Positive Allosteric Modulators of the Human D2 Dopamine Receptor: Agonists; D(2) dopamine receptor (Homo sapiens), P14416; DiscoveRx PathHunter D2 beta-arrestin, luminescence, 90 min; 100% = 57 uM dopamine signal; activation, % (test concentration not listed); hit rate 0.084% among 360,000; AID 624465, 2012; in the data active = activation above about 40%; inconclusive = about 15% to 40%; inactive = below about 15%; further: compound concentration not given in the record; the text of the record calls up to 30% inactive
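DiscoveRx PathHunter D2 beta-arrestin cells (2,100/well) attached overnight, then compound-stimulated 90 min at 37 C in HBSS/10 mM HEPES/0.1% Tween-20 buffer; beta-galactosidase complementation read by luminescence after 1 h at ambient temperature. Dopamine 57 uM final (EC100) as control.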
* marks the source's active call; other numbers are inactive results; ? = inconclusive; . = no result given; & = joins results of further samples; [ ] = another dose, or the depositor's remark.

structure	CtBP-E1A inh	TRPML1 ag	D2 PAM	PINK1 modulator	Six1-Eya2 inh	D2 ag
COc1ccc(CNC(=O)COC(=O)c2ccc(Br)o2)cc1	.	-1.5	-9	0.3%	20	0.6
O=C(NC1C2CC3CC(C2)CC1C3)C1CC1 (stereo not given)	10	0.1	-6	1.7%	6	0.5
Cn1c(SCCOc2ccccc2Cl)nnc1-c1ccncc1	1	4.0	5	1.1%[38.3 µM]	0	1.1
CC(C)(C)n1nnnc1CN(Cc1ccc(F)cc1)Cc1ccco1	34	1.8	-8	-1.7%	11	-4.1
O=C(c1c(F)c(F)c(F)c(F)c1F)N1CCN(Cc2ccc3c(c2)OCO3)CC1	8	0.9	-16	-0.8%	-3	-6.2
COc1cccc(CC(=O)N2CCN(S(=O)(=O)c3ccc(Br)cc3)CC2)c1	-2	-0.4	18	4.7%	1	1.2
CCn1cc(C(=O)N2CC=C(c3ccccc3)CC2)c(=O)c2ccc(C)nc21	-2	1.1	-5	-0.5%[38.3 µM]	1	-0.5
C[C@@H](O)C#Cc1ccc2c(c1)O[C@H](CN(C)C(=O)Nc1ccccc1)[C@@H](C)CN([C@@H](C)CO)S2(=O)=O	7	-0.2	3	2.6%	7	-6.7
COC(=O)c1cc(S(=O)(=O)N2CCN(c3cccc(Cl)c3)CC2)c[nH]1	-7	0.5	-5	8.7%	1	-4.1
CCN(CC)CCN1C(=O)c2oc3ccccc3c(=O)c2C1c1cccc(Br)c1 (stereo not given)	0	-0.3	-22	3.5%	-5	-3.0
CCCn1nnnc1SCC(=O)NC1CCCC1	6	0.6	-1	2.4%	12	-3.8
C(=NOCc1ccccc1)c1ccccn1	1	-0.3	-9	0.6%	12	-2.0
CCCCOc1ccc(NC(=O)CN2CCN(C(=O)OCC)CC2)cc1	1	-0.9	-5	0.7%	0	-3.3
O=C(NCCCN1CCCC1)c1ccc2c(c1)N(Cc1ccccc1)CCS2	-23	-0.5	-14	-0.3%	-13	-2.6
COc1ccc(-c2ccc3c(N)c(C(=O)c4ccc(OC)c(OC)c4)sc3n2)cc1	5	7.7&12	-10	14%&7.5%	28	-0.6
Cc1cc(C)c2c(N)c(C(=O)c3ccc(Cl)cc3Cl)sc2n1	-3	1.5	-20	22%	-3	-3.6
CCC(O)C1CCN(C(=O)c2cc(COc3ccc4ncccc4c3)on2)CC1 (stereo not given)	0	1.0	4	-2.0%	0	14
CCC1(C)Cc2ccccc2-c2nc[nH]c(=O)c21 (stereo not given)	-23	1.3	-10	1.9%	2	-1.0
Brc1ccc2nc(C3CCCCC3)c(CC3CCCCC3)n2c1	2	-0.4	2	26%	6	2.4
Cc1cc(C)c(S(=O)(=O)Nc2ccc3[nH]c(=O)[nH]c3c2)c(C)c1	3	0.5	-7	1.9%	-4	7.1

4 entries from above, field by field:
Structure: O=C(NCCCN1CCCC1)c1ccc2c(c1)N(Cc1ccccc1)CCS2
- CtBP-E1A inh: -23
- TRPML1 ag: -0.5
- D2 PAM: -14
- PINK1 modulator: -0.3%
- Six1-Eya2 inh: -13
- D2 ag: -2.6

Structure: COc1ccc(-c2ccc3c(N)c(C(=O)c4ccc(OC)c(OC)c4)sc3n2)cc1
- CtBP-E1A inh: 5
- TRPML1 ag: 7.7&12
- D2 PAM: -10
- PINK1 modulator: 14%&7.5%
- Six1-Eya2 inh: 28
- D2 ag: -0.6

Structure: Cc1cc(C)c2c(N)c(C(=O)c3ccc(Cl)cc3Cl)sc2n1
- CtBP-E1A inh: -3
- TRPML1 ag: 1.5
- D2 PAM: -20
- PINK1 modulator: 22%
- Six1-Eya2 inh: -3
- D2 ag: -3.6

Structure: CCC(O)C1CCN(C(=O)c2cc(COc3ccc4ncccc4c3)on2)CC1 (stereo not given)
- CtBP-E1A inh: 0
- TRPML1 ag: 1.0
- D2 PAM: 4
- PINK1 modulator: -2.0%
- Six1-Eya2 inh: 0
- D2 ag: 14

Next section:
structure	CtBP-E1A inh	TRPML1 ag	D2 PAM	PINK1 modulator	Six1-Eya2 inh	D2 ag
COc1ccc(C(c2nnnn2CS(=O)(=O)c2ccc(C)cc2)N2CCN(c3ncccn3)CC2)cc1 (stereo not given)	-9	1.8	-2	0.6%	6	2.8
O=C(NCC(c1cccs1)N1CCOCC1)c1cn(-c2ccccc2)nc1-c1ccccc1 (stereo not given)	6	-0.3	-22	0.2%	0	-0.1
CCOC(=O)Cn1c(=O)oc2cc(S(=O)(=O)Nc3cccc(C)c3)ccc21	-2	1.0	8	4.2%	9	-3.6
NC(=O)CCN(C1CCCCC1)S(=O)(=O)c1cccc2nsnc12	4	-0.4	3	-0.2%	4	0.7
CC(=O)c1ccc(N(C)C)cc1	4	-1.4	15	-0.7%	-2	-0.9
COc1ccc(NCC(=O)Nc2ccccc2C#N)cc1Cl	9	1.4	-6	6.0%	-2	-2.3
Cc1nccn1-c1ccc(C=O)cc1	.	0.3	-5	3.9%	-1	4.3
Nc1cc(N)nc(SCC(=O)N2CCN(S(=O)(=O)c3ccccc3)CC2)n1	-2	.	0	1.3%	2	-4.5
CN(CC(=O)Nc1cccc(F)c1)C(=O)CCCc1nc2ccccc2c(=O)[nH]1	10	0.2	-22	0.6%	-14	-1.9
CCc1ccccc1NC(=O)CN1CCC(NC(=O)COC)CC1	-2	-0.8	0	8.7%[38.3 µM]	1	1.6
CCc1ccccc1NC(=S)N(CCc1ccncc1)C(C)C	3	-0.5	-7	1.6%	6	-1.0
CC(=O)c1ccc(N2CCN(C(=O)Nc3ccc(C(C)C)cc3)CC2)cc1	-8	-0.2&3.2	-21	1.9%&1.2%	-11	3.6
Cc1cc(/C(N)=N/OC(=O)Nc2cccc(C(F)(F)F)c2)no1	6	-0.2	-1	1.1%	7	-3.3
Cc1sc(NC(=O)CS(=O)(=O)c2ccccc2)c(C#N)c1C	1	-0.7	-9	0.6%	2	-1.9
CCC(=O)c1cn(CC(=O)Nc2c(C)cccc2C)c2ccccc12	9	0.6	-2	1.4%	-9	-1.2
CN(C)/C=C\C(=C/C(=O)C(F)(F)F)Nc1ccccc1Oc1ccccc1	-3	0.9	-11	1.3%	-10	-3.9
O=C(c1ccco1)N1CCN(S(=O)(=O)Cc2ccc(Cl)cc2)CC1	3	-0.1	-11	2.2%[38.3 µM]	2	0.6
COc1ccc(C2NCCc3c2[nH]c2ccccc32)cc1CSc1nc2ccccc2s1 (stereo not given)	-26	3.5	-23	-2.7%	-13	-2.8
COc1ccc2ccccc2c1C1NC(=O)NC(C)=C1[N+](=O)[O-] (stereo not given)	-26	0.0	-22	7.2%	-9	-2.9
CCOc1c(Cl)cc(CNCc2ccccn2)cc1OC	-3	-0.2	-13	0.5%	-20	-6.3
CSCc1ccc(C(=O)NCc2ccc(C)cc2)cc1	2	1.3	-13	-1.3%	-6	-1.6
COCc1cc(S(=O)c2ccc(Cl)cc2)nc(C)n1 (stereo not given)	2	1.4	-16	3.6%	3	-4.4
CCCC1CC(C)(c2csc(Nc3ccc(OCC)cc3)n2)OC1=O (stereo not given)	-11	4.1	0	?	-13	0.3
Cc1ccsc1C=Nc1ccc(O)cc1	?	-0.1	75*	11%	?	?
N#CC1=C(S)N(c2ccccc2)C(c2ccc(-c3ccccc3Cl)o2)NC1=O (stereo not given)	3	1.2	4	1.8%	-6	2.9
CCN(CC(=O)Nc1ccc(NC(C)=O)cc1)C(=O)C1CCCC1	-2	0.3	7	-0.8%	0	2.5
CCOC(=O)CNC(=O)Cn1cnc2c(nnn2-c2ccc(OC)cc2)c1=O	.	0.1	-11	0.2%	1	-0.6
O=C1C(=O)N(CCCn2ccnc2)C(c2ccc([N+](=O)[O-])cc2)/C1=C(\O)c1ccc2c(c1)OCCO2 (stereo not given)	-29	0.7	-8	1.8%	-6	-3.6
CCN(CC)S(=O)(=O)c1cccc(C(=O)N2CC(O)CC2C(=O)O)c1 (stereo not given)	0	-1.4	-7	3.2%	-3	-0.5
O=C(N/N=C/c1ccc2c(c1)OCO2)C(=O)Nc1ccccc1	-5	-0.2	-2	1.3%	4	-4.5
Cc1sc(NC(=O)C2CCCO2)c(C(N)=O)c1C (stereo not given)	-2	-0.3	2	-0.3%	-1	-0.9
O=C(CSc1nnc(C2CC2)n1C1CC1)c1ccc(F)cc1	0	2.5	-1	0.9%	-1	1.1
Cc1ccc(CCP(=O)(O)CN2CCOCC2)cn1	3	0.4	-10	5.6%[38.3 µM]	-3	-0.9
O=C(Cc1ccc(Cl)cc1)Nc1ccc(S(=O)(=O)Nc2cnc3ccccc3n2)cc1	-8	0.5	-5	-2.5%	-5	4.9
CC1Oc2ccccc2C=C1/C=N/Nc1ccc(C(=O)O)cc1 (stereo not given)	2	.	-13	1.7%	-1	5.4
CCOC(=O)C1=NNC(C(=O)c2ccc(Cl)cc2)C1c1ccc(OC)cc1 (stereo not given)	1	0.5	-22	-0.3%	-1	-13
O=C(O)CSCC(=O)Nc1cc(C(F)(F)F)ccc1Cl	-2	0.3	-16	-5.0%[38.3 µM]	5	-2.2
CC1(C)CC2(CC(c3ccc(F)cc3)c3ccc(O)cc3O2)NC(=S)N1 (stereo not given)	-8	0.7	-11	1.8%	-3	-4.5
CC1(C)OC(=O)C2=C(C[C@@H](CCc3ccccc3)O[C@@H]2c2ccc(Cl)cc2)O1	-18	0.2	.	3.1%	11	.
